# VDR inh: Inhibitors of the vitamin D receptor (VDR): qHTS; Potency, µM, for inactives: max response, negative = inhibition, most hits filed as inhibitors; VDR-SRC2-3 peptide fluorescence polarization, 2 h; Vitamin D3 receptor (Homo sapiens), P11473; 0.93% of 400,000 active; active = well fitted inhibition curve with a large enough effect; inconclusive = small, poorly fitted or top-dose-only effect, or another doubt; inactive = no such curve, though single readings can be large or run the other way; also: series mostly up to about 120 µM
# Target sequence (P11473 whole entry, looked up): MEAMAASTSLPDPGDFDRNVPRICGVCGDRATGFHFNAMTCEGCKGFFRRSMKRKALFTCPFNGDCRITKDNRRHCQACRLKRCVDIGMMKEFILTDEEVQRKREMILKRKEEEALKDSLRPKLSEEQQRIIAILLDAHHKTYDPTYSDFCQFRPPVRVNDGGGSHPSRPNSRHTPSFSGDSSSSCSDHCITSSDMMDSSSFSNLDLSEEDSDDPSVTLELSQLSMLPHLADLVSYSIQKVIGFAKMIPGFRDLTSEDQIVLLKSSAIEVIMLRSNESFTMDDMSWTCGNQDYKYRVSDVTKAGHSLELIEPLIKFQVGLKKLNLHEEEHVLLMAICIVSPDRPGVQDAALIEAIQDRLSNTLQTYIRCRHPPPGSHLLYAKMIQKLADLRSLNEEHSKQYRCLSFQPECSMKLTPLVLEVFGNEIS
#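 Fluorescence polarization assay of small-molecule disruption of VDR binding to coregulator peptide SRC2-3. Compounds and controls pin-transferred, then read after 2 h incubation at ambient room temperature.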
# An asterisk follows results filed as active; ? = inconclusive; [ ] = dose if it differs, or a comment. % is scaled to controls: 0 for no effect and ±100 for the full control effect; potency is read from the fitted curve at half-maximal effect. Some of the compounds tested, so the mix of outcomes need not match the whole.
cpd	SMILES	VDR inh
1	Cc1ccc(F)cc1NC(=O)c1c(-c2ccccc2)noc1C	-18.8%
2	O=C(CCNS(=O)(=O)c1ccccc1)NNC(=O)COc1ccccc1F	-11.2%
3	COc1ccc(CCNC(=O)c2ccc3nc(Cc4ccccc4)oc3c2)cc1OC	6.4%
4	COc1ccccc1NC(=O)Cc1nnc(SCC(=O)NC2CCCC2)n1C	13.3%
5	COC(=O)[C@@]12CCCN1[C@H](c1ccc(-c3ccc4c(c3)OCO4)cc1)[C@H]1C(=O)N(C)C(=O)[C@H]12	11.3%
6	Cc1ccc(-n2c(=O)cc(N3CCCCCC3)[nH]c2=O)cc1	-11.7%
7	COc1ccc(OC2CCN(S(=O)(=O)c3ccc(C(C)=O)cc3)CC2)cc1	5.6%
8	CCOc1ccc(N2C(=O)/C(=C/c3cccs3)N(C)C2=S)cc1	-5.0%
9	O=C1NC[C@H](Cc2ccccc2)N(CC2CCN(CCC3CCCC3)CC2)C1=O	-0.7%
10	Cc1cccc(-c2noc(CNC(=O)c3ccc4c(c3)OCO4)n2)c1	-1.2%
11	COc1ccccc1/C=N/NC(=O)CN(C1=NS(=O)(=O)c2ccccc21)c1ccccc1	-10.0%
12	CCOC(=O)C1CCCN(C(=S)NC(=O)c2cc(Br)ccc2Cl)C1 (centres undefined)	-6.9%
13	CC(C)OP(C)(=O)CN1CCN(CP(C)(=O)OC(C)C)CC1 (centres undefined)	13.9%
14	O=[N+]([O-])c1ccc(N/N=C/c2cccs2)nc1	-11.8%
15	Cc1csc2c(NC3CCN(Cc4ccccc4)CC3)ncnc12	28.7%
16	O=S(=O)(c1cc(Cl)ccc1Cl)N1CCC2(CC1)OCCO2	5.9%
17	COc1ccc(N2C(=NC(=O)C3CCCCC3)SC3CS(=O)(=O)CC32)cc1OC (centres undefined)	12.1%
18	c1ccc(CNCc2ccc3c(c2)OCO3)nc1	6.3%
19	CCn1cc(C(=O)N2CCN(c3cccc(Cl)c3)CC2)c(=O)c2cc(S(=O)(=O)N3CCCCC3)ccc21	-7.8%
20	O=C(COC(=O)c1ccc([N+](=O)[O-])s1)NCCc1ccccc1	-12.4%
21	CC12CCC(=O)N1C(C(=O)NNC(=O)COc1ccc(Br)cc1)CS2 (centres undefined)	-0.2%
22	Cc1cccc(NC(=O)CSc2nc3c([nH]c4ccccc43)c(=O)n2-c2cc(C)cc(C)c2)c1	4.0%
23	O=C(COC(=O)/C=C/c1cccc(Br)c1)NC1CC1	-2.2%
24	COC(=O)c1ccc(N2CCN(CC(=O)c3ccc(C)cc3)CC2)c([N+](=O)[O-])c1	3.7%
25	Cc1cc(C)c(NC(=O)CC(=O)c2ccccc2)c(Cl)c1	12.3%
26	CC(O)Cn1ccccc1=N (centres undefined)	-3.9%
27	COc1cc(NC(=O)CCCNC(=O)c2ccc(Cl)cc2)cc(OC)c1OC	1.8%
28	CC12CCC(O)CC1=CCC1C2CCC2(C)c3[nH]ncc3CC12 (centres undefined)	-10.4%
29	Cc1c(Cl)cccc1NC(=S)NC(=O)c1cncc(Br)c1	2.2%
30	O=C(Nc1cccc(-c2ccc(N3CCCCC3)nn2)c1)C(F)(F)F	7.4%
31	Cc1cc(NC(=O)CCC(=O)N(c2ccccc2C)C(C(=O)NC2CCCC2)c2ccccc2)no1 (centres undefined)	30.4%[activator]
32	O=C1NC(=S)N/C1=C/c1cccc([N+](=O)[O-])c1	-4.1%
33	O=C1CC(N2CCN(c3cccc(C(F)(F)F)c3)CC2)C(=O)N1c1ccccc1F (centres undefined)	0.2%
34	COc1ccccc1C(=O)COC(=O)COc1ccc(C#N)cc1	-11.6%
35	COCCn1c(C)cc(C(=O)COC(=O)CNC(=O)c2ccco2)c1C	-2.0%
36	Cn1c(NC(=O)C[n+]2cc(-c3ccc(Cl)cc3)n3c2CCC3)cc(=O)n(C)c1=O	-9.5%

# Shown as labelled records: part of the list above.
25. Cc1cc(C)c(NC(=O)CC(=O)c2ccccc2)c(Cl)c1
  VDR inh: 12.3%
26. CC(O)Cn1ccccc1=N (centres undefined)
  VDR inh: -3.9%
27. COc1cc(NC(=O)CCCNC(=O)c2ccc(Cl)cc2)cc(OC)c1OC
  VDR inh: 1.8%
28. CC12CCC(O)CC1=CCC1C2CCC2(C)c3[nH]ncc3CC12 (centres undefined)
  VDR inh: -10.4%

# Later entries:
cpd	SMILES	VDR inh
37	CCOC(=O)N1CCN(Cc2nc3cc(NC(=O)C(C)C)ccc3n2CC)CC1	-1.9%
38	COc1ccc(CCN(C)Cc2ccc(OCc3ccccc3)c(OC)c2)cc1OC	0.4%
39	S=C(Nc1ccc2nccnc2c1)N1CCOCC1	-16.5%
40	Cn1nc(C(F)(F)F)c(-c2cccc(C(F)(F)F)c2)c1NC(=O)Nc1ccc(F)cc1	6.2%
41	CNc1oc(Cc2ccccc2)nc1S(=O)(=O)c1ccccc1	-24.8%
42	COc1ccc(/C=C/C(=O)NC(=S)Nc2ccc(S(=O)(=O)N=C(N)N)cc2)cc1OC	-8.0%
43	O=[N+]([O-])c1ccc(Cl)c(S(=O)(=O)Nc2cccc(S(=O)(=O)NC3=NCCC3)c2)c1	79.4µM*
44	CC(C)c1ccc(NC(=O)CSC2=Nc3ccccc3C3=NC(CCC(=O)NCc4ccc(F)cc4)C(=O)N23)cc1 (centres undefined)	15.0%
45	COc1ccc(S(=O)(=O)N2CCOCC2)cc1NC(=O)CSc1nnnn1C1CC1	-11.5%
46	C=CCOc1c(Br)cc(/C=N/NC(=O)Cc2ccc(C(F)(F)F)cc2[N+](=O)[O-])cc1OC	-9.5%
47	COc1ccc(N2CCN(C(=O)CN(C)S(=O)(=O)c3cnc[nH]3)CC2)cc1	12.9%
48	COCC(=O)Nc1ccccc1C(=O)NC(C)C	-4.8%
49	COc1ccc(-c2nnc(OC)c3ccccc23)cc1	-5.6%
50	COc1ccccc1N1C(=NC(=O)C(C)Oc2ccccc2)SC2CS(=O)(=O)CC21 (centres undefined)	-12.3%
51	COc1ccc(OCCC(=O)OCC(=O)Nc2cccc(S(=O)(=O)N3CCCCC3)c2)cc1	-26.3%
52	COC(=O)C1=C(N)Oc2cc(C)oc(=O)c2C1c1cccnc1 (centres undefined)	5.0%
53	CC(=O)O[C@@]1(C(C)=O)CCC2C3CC(C)C4=CC(=O)CC[C@@]4(C)C3CC[C@]21C (some centres undefined)	?
54	CCCCCC(O)CCc1n[nH]c(=S)n1-c1ccccc1 (centres undefined)	-3.1%
55	CN1/C(=C\C(=O)CSc2ncn[nH]2)C(C)(C)c2ccccc21	-4.9%
56	Cc1cccc(OCC(=O)Nc2c(C(=O)Nc3ccc(F)cc3)oc3ccccc23)c1	13.3%
57	Cc1cccc(-c2cc3nc(C)cc(C)n3n2)c1	-0.7%
58	C=C1CCC(OC(C)=O)/C(C)=C/CC2[C@H]1CC2(C)C (some centres undefined)	?
59	Cc1nc(=O)c(-c2ccccc2)c(C)n1-c1ccccc1O	-9.5%
60	Cc1ccc(-n2c(=O)[nH]cc(C(=O)N3CCc4ccccc43)c2=O)cc1	0.8%
61	Cc1ccc(NC(=O)c2ccc(Br)cc2)c(C(=O)c2ccccc2)c1	-18.3%
62	CNS(=O)(=O)c1cn(CC(=O)NCc2ccc(OC)cc2)cc1S(=O)(=O)NC	-2.8%
63	COc1ccc(CCn2c(=N)c(S(=O)(=O)c3ccc(Cl)cc3)cc3c(=O)n4ccccc4nc32)cc1	-6.3%
64	Nc1nc2n(n1)C(c1ccco1)CC(c1ccc(Cl)cc1Cl)N2 (centres undefined)	-4.8%
65	CN(CC(=O)Nc1ccccc1C(=O)NC1CC1)Cc1ccc(Cl)cc1	-9.3%
66	c1ccc(CSc2nnc(-c3cccnc3)o2)cc1	0.4%
67	COC(=O)[C@@]12CCCN1[C@H](c1ccc(-c3cccc(Cl)c3)cc1)[C@H]1C(=O)N(C)C(=O)[C@H]12	-2.0%
68	COc1ccc(N(CCC(=O)O)S(=O)(=O)c2ccc(C)c(C)c2)cc1	-13.9%
69	CCCS(=O)(=O)N1CCN(S(=O)(=O)c2ccc(F)cc2)CC1	9.2%
70	COc1cc(SC)ccc1C(=O)N1CCN(Cc2ccc3c(c2)OCO3)CC1	7.0%
71	CCCCCCc1nc2ccccc2c(=O)n1N	-4.7%
72	CC(C)Cn1c(SCC(=O)Nc2ccc(Cl)cc2F)nc(O)cc1=O	-10.4%
73	Cc1ccc(-c2nnc(-c3ccccc3)c(-c3ccccc3)n2)cc1	-18.7%
74	C=C(C)c1cccc(C(C)(C)NC(=O)Nc2ccc3[nH]c(=O)[nH]c3c2)c1	6.7%
75	N#C/C(=C\c1ccc(OC(=O)c2cccs2)cc1)c1nc2ccccc2[nH]1	-8.3%
76	CC(C)(C)C1CCc2c(sc(NC(=O)c3cccs3)c2C(=O)N2CCCCC2)C1 (centres undefined)	18.9%
77	N=C1S/C(=C\c2cccc3ccccc23)C(=O)N1c1ccc(F)cc1	9.4%
78	CSc1ccc(NC(=O)Nc2ccccc2C(N)=O)cc1	-4.7%
79	COc1ccc(C(=O)Nc2cc(Cl)ccc2N2CCOCC2)cc1S(=O)(=O)N1CCOCC1	4.1%
80	Cc1ccc(NC(=O)Cn2c(=O)n(Cc3nc(-c4ccccc4)no3)c(=O)c3cc4c(cc32)OCO4)cc1C	0.1%
81	CCCCCC(=O)Nc1cccc(C2=NOC3(C2)C[C@@H](C(N)=O)N(C(=O)C2(C)CC2)C3)c1 (some centres undefined)	-4.9%
82	COc1ccc2c(Cl)c(C(=O)N/N=C3\CCCC(=O)C3)sc2c1	7.2%
83	Cc1cc(=O)[nH]c(SCC(=O)N2CCc3ccccc3C2)n1	8.2%
84	Cc1cc(C(=O)OCC(=O)Nc2ccccc2C#N)c(C)o1	-10.9%
85	CC(C)(C)c1ccc(OCCC(=O)OCC(=O)Nc2cccnc2Cl)cc1	11.4%
86	CCOc1ccc(S(=O)(=O)N2CCN(C(=O)CN3C(=O)NC4(CCCC4)C3=O)CC2)cc1	-24.3%
87	O=C(NCc1cccs1)c1ccc2c(c1)OCCO2	18.1%
88	O=C(NCCOCCn1c(=O)oc2ccccc21)Nc1ccc(Cl)cc1	7.8%
89	C=CCNC(=O)C1CC2Cn3c(nc4ccccc43)C2N1C (centres undefined)	-5.3%
90	COCCNC(=O)CN(Cc1ccc2c(c1)OCO2)C(=O)CCC(=O)Nc1nccs1	?
91	Cc1cc(=O)[nH]c(NN=C2CCCCC2C)n1 (centres undefined)	-11.0%
92	O=c1c2ccccc2nnn1-c1ccc(Br)cc1	1.2%
93	Cc1ccc2nc(Cl)c(CNCc3ccccc3)cc2c1	-20.9%
94	Cc1ccc(Cl)cc1N1CCN(S(=O)(=O)c2ccc3oc(=O)c4ncn(C)c4c3c2)CC1	-7.8%
95	CCOC(=O)Cn1c(=O)c(-c2ccccc2N)nc2ccccc21	-10.8%
96	O=C(COC(=O)c1ccc(Br)o1)NCc1ccc(Cl)cc1	-17.4%

# Carrying on:
cpd	SMILES	VDR inh
97	N#Cc1cnn(-c2nc(SCc3ccccc3)nc3sc4c(c23)CCCC4)c1N	13.6%
98	CC(=O)N1CCN(CCS(=O)(=O)c2cc(Cl)ccc2Cl)CC1	-7.8%
99	CC(C)Cn1c([N+](=O)[O-])nc2c1c(=O)[nH]c(=O)n2C	-18.1%
100	Nc1ccc2cn[nH]c2c1	3.6%
101	CC(Oc1ccc(Cl)cc1Cl)C(=O)OCC(=O)c1c(N)n(C)c(=O)n(C)c1=O (centres undefined)	-18.4%
102	COc1ccc(Cc2nnc(N/N=C/c3ccc(O)cc3)[nH]c2=O)cc1OC	-8.3%
103	COC(=O)C1CCN(c2nc3ccccc3nc2C(C#N)C(=O)OCC(C)C)CC1 (centres undefined)	-0.5%
104	Fc1ccccc1COc1ccc(Br)cc1CNCc1cccnc1	-0.5%
105	CN(C)S(=O)(=O)c1ccc(C(=O)NC(=O)CSc2nncs2)cc1	10.5%
106	CC1CC(C)CN(CCCNC(=O)c2ccc3c(c2)ncn3C2CCCC2)C1 (centres undefined)	18.0%
107	COc1cccc(-c2cc(N3C(=O)Nc4ccccc4N3O)n[nH]2)c1	6.9%
108	COc1ccc(CNC(=O)C(c2ccncc2)N(C(=O)Cc2cccs2)c2ccc(C)cc2)cc1 (centres undefined)	6.0%
109	CN(C)CCNC(=O)c1ccc(-n2c(-c3ccccc3)cc3c2CCCCC3)cc1	1.8%
110	Cc1ccc(-n2c(C)c3c(C)nnc(C)c3c2C)cc1C	29.8%
111	CC(C)c1ccc(C(C)NCCS(=O)(=O)c2ccc(Br)cc2)cc1 (centres undefined)	6.6%
112	CC(OC(=O)c1ccccc1NCCO)C(=O)NCC(=O)Nc1ccc(F)c(F)c1F (centres undefined)	-14.9%
113	COc1ccc(C(N)c2nccc3cc(OC)c(OC)cc23)cc1OC (centres undefined)	5.5%
114	Cc1ccc(OCC(=O)NCc2cccs2)c([N+](=O)[O-])n1	-7.2%
115	CN1CCN(C(=O)c2ccc(-c3ccc(Br)cc3)o2)CC1	-9.0%
116	COc1ccc(CNCc2cc3c(cc2[N+](=O)[O-])OCO3)cc1	-8.1%
117	COC(=O)c1ccc(Oc2coc3cc(OCc4ccc([N+](=O)[O-])cc4)ccc3c2=O)cc1	-1.7%
118	Cc1ccc(C(=O)NCC(C)(C)N2CCOCC2)s1	-9.0%
119	CCOC(=O)c1cc(-c2ccc(F)cc2)n(CC(=O)N2CCCC2)c1C	-4.5%
120	c1ccc2oc(NC3=NCN(CC4CCCO4)CN3)nc2c1 (centres undefined)	-8.7%
121	COc1cc(OC)cc(-c2c(-c3ccc(C(C)=O)cc3)c3cc(-c4cccc5[nH]ccc45)ccc3n2C)c1	-19.3%

# High-throughput results from PubChem.
